Screens as filed in PubChem.
RE007 growth inh: qHTS Assay for Inhibitors of the HIV-1 protein Vpr; S. pombe RE007 Vpr strain, BacTiter-Glo ATP luminescence, 24 h; control for the full effect not named in the record; Potency, µM (titrated, usually from 92.2 µM), inactives show top-dose activity change, negative = less growth; hit rate 0.21% among 360,000; active = well fitted falling curve with a large enough effect; inconclusive = small, poorly fitted or top-dose-only effect; inactive = no such curve, though single readings can be large or run the other way;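 further: on the % scale 0 is the no-effect control and ±100 the full control effect; nearly all actives have a fitted effect of over 50% in size; the assay follows cell death caused by Vpr and the record does not say whether a fall means rescue or toxicity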
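Fission yeast strain RE007, carrying one chromosomally integrated HIV-1 vpr copy, was seeded at OD 0.01 in PMG+AL medium with 23 nL pinned compound. After 24 h at 30 °C and 99% humidity, viability was read by BacTiter-Glo luminescence.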
NS1 inh: qHTS Assay for Inhibitors of Influenza NS1 Protein Function; S. cerevisiae slowed by influenza A NS1, growth recovery by OD600; Potency, µM (series often up to 46.1 µM), without a hit: top-dose activity, positive = more growth; hit rate 0.4% among 270,000; active means well fitted rising curve with a large enough effect; inconclusive means small, poorly fitted or top-dose-only effect; inactive means no such curve, though single readings can be large or run the other way; further: nearly all actives have a fitted effect of over 50% in size
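Compounds were scored for reversing the slow growth caused by influenza A NS1 in S. cerevisiae, measured by optical density at 600 nm. Assay medium contained 2% galactose at pH 6.0; NS1-free yeast of the same strain were the positive control.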
2A StopGo: High Throughput Screening for Foot and Mouth Disease Virus Antivirals; human cells with a luciferase reporter of 2A StopGo recoding; control for the full effect not named in the record; Potency, µM (highest dose often 57.9 µM), without a hit: at the highest dose signal change, negative = less light; hit rate 1.2% among 410,000; AID 1159524, 2015; active = well fitted falling curve with a large enough effect; inconclusive = small, poorly fitted or top-dose-only effect; inactive = no such curve, though single readings can be large or run the other way; tested in HEK293T cells; further: on the % scale 0 is the no-effect control and ±100 the full control effect; nearly all actives have a fitted effect of over 45% in size; luciferase light after 4 h
Cruzain Triton: qHTS Assay for Promiscuous and Specific Inhibitors of Cruzain (with detergent). hit rate 0.43% among 200,000. Potency, µM, inactives show max response, negative = inhibition, most hits filed as inhibitors. AID 1478, 2009. purified cruzain, Z-FR-AMC fluorescence, 0.01% Triton;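 further: plate controls were neutral wells for no effect and buffer without enzyme for full effect; nearly all actives have a fitted effect of over 40% in size; top concentration of the series not given in the record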
Target sequence (P25779 123-467 limits assumed): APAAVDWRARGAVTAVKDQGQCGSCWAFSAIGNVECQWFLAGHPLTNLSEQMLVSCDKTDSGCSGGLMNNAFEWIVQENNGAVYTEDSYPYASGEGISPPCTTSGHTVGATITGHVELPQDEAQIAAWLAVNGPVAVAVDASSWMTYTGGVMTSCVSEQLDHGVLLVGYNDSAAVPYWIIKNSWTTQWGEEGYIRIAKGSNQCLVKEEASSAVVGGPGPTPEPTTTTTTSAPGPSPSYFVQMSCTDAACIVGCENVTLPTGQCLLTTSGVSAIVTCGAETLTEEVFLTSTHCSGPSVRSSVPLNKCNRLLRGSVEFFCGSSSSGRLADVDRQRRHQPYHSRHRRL
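In this qHTS format, compounds are incubated with 1.5 nM cruzain for 15 min at room temperature before 2 uM Z-FR-AMC is added. Release of AMC is followed at 360/450 nm, and progress is taken as the 60 s fluorescence difference.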
Cruzain inh noDet: qHTS Assay for Promiscuous and Specific Inhibitors of Cruzain (without detergent). Cruzipain (Trypanosoma cruzi), P25779. purified cruzain, Z-FR-AMC fluorescence, no detergent. Potency, µM, without a hit: max response, negative = inhibition, hits mostly inhibitors. hit rate 2.3% among 200,000. AID 1476, 2009;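 further: plate controls were enzyme without inhibitor for no effect and buffer without enzyme for full effect; nearly all actives have a fitted effect of over 40% in size; top concentration of the series not given in the record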
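Purified cruzain at 1.5 nM, pre-incubated 15 min with compound at room temperature in 100 mM sodium acetate pH 5.5, 5 mM DTT, 0.00005% Triton X-100. Reaction started with 2 uM Z-FR-AMC; AMC fluorescence increase over 60 s gives rate.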
MARV entry inh: qHTS for inhibitors of binding or entry into cells for Marburg Virus | Marburg virus pseudotyped entry inhibition, cell reporter; control for the full effect not named in the record; about a third of the inactives were read at about 46 µM | Potency, µM (top dose mostly 37.8 µM), inactives show at the highest dose activity change, negative = inhibition, usual class: inhibitors | hit rate 1.8% among 300,000 | AID 540276, 2011; active = well fitted inhibition curve with a large enough effect; inconclusive = small, poorly fitted or top-dose-only effect, or effect the other way; inactive = flat fitted curve, though single readings scatter; tested in HEK293 cells; about a fifth of its hits are not listed in these tables; further: on the % scale 0 is the no-effect control and ±100 the full control effect; luciferase read-out
SARS PLpro yeast: qHTS of Yeast-based Assay for SARS-CoV PLP; S. cerevisiae expressing SARS-CoV PLpro, growth rescue; control for the full effect not named in the record; Potency, µM (top dose mostly 32.9 µM), for the others: at the top dose activity, positive = growth rescue; hit rate 0.19% among 330,000; AID 485353, 2010; active means well fitted rising curve with a large enough effect; inconclusive means small, poorly fitted or top-dose-only effect; inactive means no such curve, though single readings can be large or run the other way; further: 0% is about no effect; nearly all actives have a fitted effect of over 55% in size; growth read by luminescence after 48 h
Lassa entry inh: qHTS for Inhibitors of binding or entry into cells for Lassa Virus | Lassa virus pseudotype entry inhibition, cell reporter; control for the full effect not named in the record | Potency, µM (doses to about 37.9 µM), for inactives: top-dose activity change, negative = inhibition, most hits filed as inhibitors | hit rate 1.2% among 300,000; active means well fitted inhibition curve with a large enough effect; inconclusive means small, poorly fitted or top-dose-only effect, or effect the other way; inactive means flat fitted curve, though single readings scatter; tested in HEK293 cells; further: on the % scale 0 is the no-effect control and ±100 the full control effect; nearly all actives have a fitted effect of over 50% in size; luciferase read-out
Numbers without * were called inactive; u = inconclusive; x = not tested or not shown; & = joins results of further samples; [ ] = remark or other dose. Unless noted, the call rests on the fitted dose curve; in most records, active means well fitted curve in the direction sought with a large enough effect; inconclusive means small, poorly fitted or top-dose-only effect, or another doubt; inactive means no such curve, though single readings can be large; an effect the other way counts as inactive or inconclusive. Potency means the concentration at half of the fitted maximal effect.

item	SMILES	MARV entry inh	NS1 inh	Cruzain Triton	Cruzain inh noDet
1	COC(=O)c1sccc1NC(=S)N1CC(C)CC(C)C1 (stereo not drawn)	-14%[46.1 µM]	-107%	0.8%	9%
2	CNC(=O)NC(=O)COC(=O)CCCOc1ccc(OC)cc1	0%	4%	0.6%	0%
3	CCOC(=O)C1CCCN(C(=O)c2cc3c(C)nc4ccccc4c3o2)C1 (stereo not drawn)	u	-38%	-4.5%	4%
4	CCc1cccc(C)c1NC(=O)CC(C)(C)CC(=O)O	u	-4%	x	x
5	CCOc1ccc(N(CC)C(=O)CCS(=O)(=O)c2cccc3nonc23)cc1	-4%[46.1 µM]	4%	x	x
6	COc1ccc(NC(=O)COC(=O)CNC(=O)c2cc(OC)c(OC)c(OC)c2)cc1	-3%	-6%	-5.9%	-10%
7	Cc1cc(C)cc(NC(=O)CCc2c(C)nn(-c3ccc(N4CCCCC4)nn3)c2C)c1	x	1%	x	x
8	CCOc1ccc(Nc2cc(=O)oc3ccccc23)cc1	-25%	-35%	-2.0%	-3%
9	Nc1cc(N)nc(SCC(=O)N2CCN(S(=O)(=O)c3ccccc3)CC2)n1	x	11µM*	x	x
10	CCN(CC(=O)NCc1cccs1)S(=O)(=O)c1ccc(C(C)C)cc1	-1%	-17%	3.6%	-13%
11	COc1cc(O)c(C(CC(=O)N2CCCCC2)c2ccc3c(c2)OCO3)c(OC)c1 (stereo not drawn)	x	-4%	x	x
12	COc1ccc(-c2nnn(-c3cc(Cl)cc(Cl)c3)c2N)cc1	u	-7%	x	x
13	O=c1[nH]c2ccccc2c2oc(CCl)nc12	-6%[46.1 µM]	4%	x	x
14	COc1ccc(CNC(=O)C2CCN(C(=O)[C@@H]3Cc4ccccc4CN3)CC2)cc1	x	19%	x	x
15	O=C(O)c1ccc(NN=Cc2cc(=O)[nH]c(=O)[nH]2)cc1	40%	x	x	x

item	SARS PLpro yeast	RE007 growth inh	2A StopGo	Lassa entry inh
1	-48%	-28%	-12%	-23%
2	2%	4%	9%	11%
3	-1%	-2%	u	u
4	0%	-2%	-6%	5%
5	3%	7%	0%	-2%
6	4%	7%	4%	u
7	-3%	24%	54%[activator]	x
8	-4%	11%	35%[activator]	-26%
9	-1%	18%	-10%	x
10	8%	18%	-18%	u
11	0%	-7%	-17%	x
12	0%	-4%	-23%	0%[46.1 µM]
13	1%	0%	u	-4%
14	-1%	17%	-20%	x
15	x	12%	-17%	4%

The list continues:
item	SMILES	MARV entry inh	NS1 inh	Cruzain Triton	Cruzain inh noDet
16	COC(=O)c1cccc(NC(=O)CC2C(=O)NCCN2C(=O)Nc2cc(C)cc(C)c2)c1 (stereo not drawn)	0%[46.1 µM]	-5%	x	x
17	COc1ccc2sc(N(Cc3cccnc3)C(=O)C3COc4ccccc4O3)nc2c1 (stereo not drawn)	x	x	-1.1%	-4%
18	COC(=O)CCCCCCCCCCN1CCCCC1	12%	-10%	1.4%	0%
19	O=C(NCCS(=O)(=O)N1CCN(c2ccccc2)CC1)c1cccs1	2%[46.1 µM]	x	x	x
20	CCNc1nc(C)c2cc(Br)c(=O)n(CC)c2n1	u	-1%	2.7%	u
21	Cc1ccccc1N1CCN(C2CCCN(C(=O)c3ccc(Cl)s3)C2)CC1 (stereo not drawn)	-22%	-12%	x	x
22	CCN1C(=O)c2ccccc2S(=O)c2ccc(C(=O)N3CCN(c4ccc(F)cc4)CC3)cc21 (stereo not drawn)	1%[46.1 µM]	x	-0.3%	8%
23	O=C(c1cnc2n(c1=O)CCS2)N1CCN(c2ccccc2F)CC1	x	-14%	1.2%	-10%
24	Cc1sc2nc(SCC(=O)Nc3c(C)n(C)n(-c4ccccc4)c3=O)n(C)c(=O)c2c1C	-13%&-13%	-6%	-7.7%	1%
25	O=C(O)CCC(=O)Nc1ccc(Br)cc1C(=O)c1ccccc1Cl	3%[46.1 µM]	-4%	x	x
26	Cc1ccc(N(CC(=O)NCCc2ccccc2)S(=O)(=O)c2c(C)noc2C)cc1	u	-1%	0.4%	1%
27	CC1CC(C)CN(C(=O)COC(=O)c2nn(C)c(=O)c3ccccc23)C1 (stereo not drawn)	-4%	x	x	x
28	O=c1c2ccccc2nnn1CSc1nnnn1-c1ccccc1	3%	6%	-1.0%	-1%
29	O=C1c2ccccc2C2=Nc3ccccc3SC(c3cccc(F)c3)C12 (stereo not drawn)	u	10%	-3.5%	-30%
30	N#Cc1nc(COc2ccc(Br)cc2)oc1N1CCCC1	-15%&-15%[46.1 µM]	-74%	0.8%	-2%

item	SARS PLpro yeast	RE007 growth inh	2A StopGo	Lassa entry inh
16	-4%	5%	-2%	-20%[46.1 µM]
17	x	x	-16%	2%[46.1 µM]
18	-40%	29%	-23%	-21%
19	3%	16%	-13%	1%
20	0%	21%	-12%	u
21	-3%	-11%	u	-8%
22	x	x	0%	3%[46.1 µM]
23	-6%	18%	-6%	x
24	2%	1%	-12%	1%
25	0%	6%	-16%	-1%[46.1 µM]
26	1%	1%	x	u
27	x	-12%	-24%	2%
28	-2%	14%	0%	-2%
29	-66%	-24%	2%	u
30	-3%	-2%	-7%	-5%

Some of the entries so far, as a markdown table.
| no. | mol | MARV entry inh | NS1 inh | Cruzain Triton | Cruzain inh noDet | SARS PLpro yeast | RE007 growth inh | 2A StopGo | Lassa entry inh |
| --- | --- | --- | --- | --- | --- | --- | --- | --- | --- |
| 29 | O=C1c2ccccc2C2=Nc3ccccc3SC(c3cccc(F)c3)C12 (stereo not drawn) | u | 10% | -3.5% | -30% | -66% | -24% | 2% | u |
| 30 | N#Cc1nc(COc2ccc(Br)cc2)oc1N1CCCC1 | -15%&-15%[46.1 µM] | -74% | 0.8% | -2% | -3% | -2% | -7% | -5% |

Returning to the listing, repeating the 3 entries before the break.
item	SMILES	MARV entry inh	NS1 inh	Cruzain Triton	Cruzain inh noDet
28	O=c1c2ccccc2nnn1CSc1nnnn1-c1ccccc1	3%	6%	-1.0%	-1%
29	O=C1c2ccccc2C2=Nc3ccccc3SC(c3cccc(F)c3)C12 (stereo not drawn)	u	10%	-3.5%	-30%
30	N#Cc1nc(COc2ccc(Br)cc2)oc1N1CCCC1	-15%&-15%[46.1 µM]	-74%	0.8%	-2%
31	O=S(=O)(c1ccc(Cl)cc1)c1nc(-c2cccs2)oc1N1CCCCC1	u	x	-2.4%	16%
32	CCOC(=O)C1CCN(C(=O)Cn2cc(C#N)c3ccccc32)CC1	2%	3%	3.3%	-2%
33	Cc1ccc(Cl)cc1NC(=S)N(CCCN1CCN(C)CC1)Cc1ccco1	u	2%	x	x
34	COc1nc(-c2ccccc2)c2c(c1C#N)CC(C)(C)OC2	-12%	-14%	3.1%	3%
35	Cc1cccc(NC(=O)Nc2nnc(N3CCCC3)s2)c1	u	x	-5.7%	u
36	CSc1nc(NCC(C)C)c2c3c(sc2n1)CN(C)CC3	10%	4%	-1.5%	15%
37	Cc1cccc(C)c1NC(=O)C(=O)NCC(c1ccc2c(c1)OCO2)N1CCOCC1 (stereo not drawn)	x	x	-1.7%	1%
38	NC(N)=NCC(O)CN(c1ccccc1)c1ccccc1 (stereo not drawn)	17%[46.1 µM]	-3%	x	x
39	C/C=C(\C)C(=O)Nc1cccc(C2=NOC3(C2)C[C@@H](C(N)=O)N(C(=O)/C(C)=C/C)C3)c1 (stereo partly drawn)	x	-4%	x	x
40	CCCC(=O)NC(C)C(c1cccs1)N1CCN(c2ccccc2)CC1 (stereo not drawn)	-23%	-6%	1.6%	3%
41	CCc1ccc(C(=O)N2CCC(c3nc4ccccc4s3)CC2)cc1	-7%	-37%	-6.6%	6%
42	CN(C)C(CNC(=O)c1ccc(NS(=O)(=O)c2ccc(F)cc2)cc1)c1ccco1 (stereo not drawn)	-16%[46.1 µM]	x	x	x
43	O=C(CN1C(=O)COc2ccccc21)NCCCN1CCCCC1	x	1%	x	x
44	CCOCN(C(=O)Cn1c(CC(C)C)nc2ccccc21)c1c(C)cccc1CC	u	x	-4.7%	29%
45	Cc1ccc(SCCC(=O)N2CCCC2)cc1	12%	-3%	6.2%	-4%

item	SARS PLpro yeast	RE007 growth inh	2A StopGo	Lassa entry inh
28	-2%	14%	0%	-2%
29	-66%	-24%	2%	u
30	-3%	-2%	-7%	-5%
31	x	x	18%	0%[46.1 µM]
32	1%	-2%	-17%	9%
33	-1%	-3%	-1%	x
34	4%	4%	-15%	-21%
35	x	x	48%[activator]	-20%[46.1 µM]
36	0%	-8%	-26%	u
37	x	x	1%	6%[46.1 µM]
38	0%	6%	-16%	28%[46.1 µM]
39	-1%	-4%	2%	x
40	13%	5%	-10%	-13%
41	-2%	1%	-25%	u
42	1%	19%	15%	-8%
43	12%	-11%	-12%	x
44	x	x	-30%	-19%[46.1 µM]
45	-3%	6%	x	u

New compounds follow:
item	SMILES	MARV entry inh	NS1 inh	Cruzain Triton	Cruzain inh noDet
46	Cc1ccc(-n2c(C)cc(C(=O)CSc3nnc4ccccn34)c2C)cc1	x	8%	-3.5%	1%
47	COc1ccccc1C(=O)N1CCN=C1SCc1cccnc1	-8%	8%	3.3%	-2%
48	Cc1nc(NC(=O)CN(C)S(=O)(=O)c2ccc(Cl)cc2)sc1C	6%	-3%	-4.4%	-4%
49	CN(C(=O)COC(=O)c1ccccc1NCc1ccco1)c1c(N)n(Cc2ccccc2)c(=O)[nH]c1=O	-30%[46.1 µM]	x	x	x
50	O=C(N/N=C/c1ccccc1O)c1cccc(C(F)(F)F)c1	5.6µM*	3%	-5.8%	-28%

item	SARS PLpro yeast	RE007 growth inh	2A StopGo	Lassa entry inh
46	12%	18%	-29%	x
47	-2%	-18%	-13%	14%
48	0%	-3%	-7%	11%
49	0%	0%	-17%	-30%
50	u	9%	68%[activator]	u

No enrichment for hits (roughly 4.6% active in at least one column).
